StopGo RLuc – FMDV 2A StopGo reporter, Renilla signal; Potency, µM (highest dose often 57.5 µM), for inactives: at the top dose signal change, negative = less light; 120,000 tested, 0.32% active; HEK cells with a luciferase reporter of 2A StopGo recoding; active means well fitted falling curve with a large enough effect; inconclusive means small, poorly fitted or top-dose-only effect; inactive means no such curve, though single readings can be large or run the other way; note: nearly all actives have a fitted effect of over 55% in size; overnight with compound
StopGo FLuc – lowers the firefly signal of an FMDV 2A StopGo reporter. Potency, µM (titrated, usually from 57.5 µM), inactives show top-dose signal change, negative = less light. HEK cells with a luciferase reporter of 2A StopGo recoding. 120,000 tested, 0.23% active. AID 1745856; active = well fitted falling curve with a large enough effect; inconclusive = small, poorly fitted or top-dose-only effect; inactive = no such curve, though single readings can be large or run the other way; note: nearly all actives have a fitted effect of over 60% in size; overnight with compound
* = called active by the depositor; ? = inconclusive; & = joins results of further samples; [ ] = remark or other dose. % is set by controls: 0 for no effect and ±100 for the full control effect; potency is the fitted concentration of half-maximal effect.

Start of the data: the first three entries (preview)
SMILES	StopGo RLuc	StopGo FLuc
Cc1ccc(CNC(=O)CSc2nc3cc4c(cc3c(=O)n2Cc2ccco2)OCO4)cc1	-8%	3%
CC(=O)c1cccc(NC(=O)c2ccc3nc(C(C)C)oc3c2)c1	-6%	3%
CC(C)C(=O)/C(C#N)=C\c1ccc(OCc2ccccc2F)cc1	16%	160%[activator]

Results, repeating the preview:
SMILES	StopGo RLuc	StopGo FLuc
Cc1ccc(CNC(=O)CSc2nc3cc4c(cc3c(=O)n2Cc2ccco2)OCO4)cc1	-8%	3%
CC(=O)c1cccc(NC(=O)c2ccc3nc(C(C)C)oc3c2)c1	-6%	3%
CC(C)C(=O)/C(C#N)=C\c1ccc(OCc2ccccc2F)cc1	16%	160%[activator]
CCN(CC)S(=O)(=O)c1ccc(-c2nc(C#N)c(NCCN3CCOCC3)o2)cc1	104%[activator]	1%
CCc1ccc(-n2nc(C)c3c(C(=O)N4CCN(c5cccc(Cl)c5)CC4)cc(C)nc32)cc1	10%	-4%
C/C(c1cccs1)=[N+](\[O-])C(C)/C(=N/O)c1ccco1 (stereo unspecified)	11%	11%
O=C(OC1CCCCC1=O)c1ncc(Cl)c(Cl)c1Cl (stereo unspecified)	-4%[1.06 µM]	-6%
CCOc1ccc(CN2CCc3nc(N4CCN(c5ncccn5)CC4)ncc3C2)cc1OC	?	?
Cc1ccc(C2SCC(=O)Nc3c2c(C)nn3-c2ccccc2)cc1 (stereo unspecified)	-26%	21%
CCOC(=O)C(NC(=O)c1cc(OC)c(OC)c(OC)c1)C(=O)OCC	-4%	17%
CCCc1ccc(C(NC(=O)CCNC(=O)C(C)(C)C)C(C)C)cc1 (stereo unspecified)	-1%	-9%
CC(C)CCC1(C)NC(=O)N(Cc2cc(F)cc3cccnc23)C1=O (stereo unspecified)	0%	-2%
CCOC(=O)c1sc(NC(=O)c2cc3nc(-c4ccccc4)cc(C(F)(F)F)n3n2)c(C(=O)OCC)c1C	21%	-22%
Cc1cccc(-c2noc(-c3cc(-c4ccc(F)cc4)n[nH]3)n2)c1	-16%	24%
O=C(Nc1cccc(Cl)c1)c1ccc2c(c1)CCC2	18%	104%[activator]

Among those listed so far, 2 contain a thiophene ring, fused or not:
SMILES	StopGo RLuc	StopGo FLuc
C/C(c1cccs1)=[N+](\[O-])C(C)/C(=N/O)c1ccco1 (stereo unspecified)	11%	11%
CCOC(=O)c1sc(NC(=O)c2cc3nc(-c4ccccc4)cc(C(F)(F)F)n3n2)c(C(=O)OCC)c1C	21%	-22%

(next part)
SMILES	StopGo RLuc	StopGo FLuc
Cn1ncc2c(Nc3ccccc3)nc(NC3CCCC3)nc21	14%	0%
CCOc1ccc(CCNC(=O)CSCc2nc(-c3cccc(C)c3)oc2C)cc1OCC	?	?
Cc1ccc(/C=C(\C#N)C(=O)Nc2cccc(Br)c2)o1	3%	79%[activator]
O=C(COc1ccccc1Cl)N1CCC(c2ccccc2)=N1	19%	16%
Cc1ccc(C2=[N+]([O-])C3(CCCC/C3=N\O)N(O)C2(C)C)o1 (stereo unspecified)	15%	13%
Cc1csc(NC(=O)Cc2csc(-c3ccccc3Cl)n2)n1	-26%	117%[activator]
COc1cccc(-c2ccc(=O)n(CC(=O)Nc3cc(Cl)c(OC)cc3OC)n2)c1	-5%	-2%
O=c1[nH]nc(SCc2ncc(-c3ccccc3)o2)n1CCc1ccccc1	?	53%[activator]
CC1CCCCN1C(=O)CSc1nc2ccccc2c(=O)[nH]1 (stereo unspecified)	15%	0%
CCCN(CCC)C(=O)COc1ccc2c(C)cc(=O)oc2c1	11%	17%
COc1cccc(N2CC(NC(=O)c3cccs3)CC2=O)c1 (stereo unspecified)	-16%	-14%
COCCCn1c(C)cc(C(=O)COC(=O)Cc2nn(C)c(=O)c3ccccc23)c1C	?	?
Cc1cc2ccccc2n1CC(=O)NC1CCN(C(C)(C)C)CC1	-10%	-9%
CC(C)Cn1c(SCc2cccc(F)c2)nc2ccsc2c1=O	2%	19%
O=C(NCc1ccc(Cl)cc1)C1(c2cccs2)CCOCC1	21%	-15%
CC1CCN(C(=O)COc2ncnc3ccc(Br)cc23)CC1	-18%	21%
Cc1cccc2c(=O)n(CC(=O)Nc3ccc4oc(C(C)C)nc4c3)cnc12	-14%	5%
COc1ccc(-c2cc3ccc(OCC(=O)OC(C)C)cc3oc2=O)cc1OC	10%	71%[activator]
Cc1ccc(C)c(CN2C(=O)N(c3cc(Cl)ccc3C)S(=O)(=O)c3ccccc32)c1	9%	-6%
O=C(Nc1ccc(I)cc1)C1CC2CCC1C2 (stereo unspecified)	12%	145%[activator]
O=C(CSc1nc2ccccc2c(=O)n1-c1ccc(F)cc1F)NC(=O)NC1CCCC1	-2%	-4%
Cc1ccccc1CN(C)C(=O)Cn1cnc2c1c(=O)n(C)c(=O)n2C	-18%	-15%
O=C(NCc1ccccc1)C(=O)NCC(c1ccco1)S(=O)(=O)c1ccc(Cl)cc1 (stereo unspecified)	?	-23%
O=[N+]([O-])/C=C\c1ccc2c(c1)OCO2	?	?
COc1ccc(-c2nc(CSCC(=O)NCc3ccccc3)c(C)o2)cc1OC	-1%	-9%
CCCCC(CC)CNC(=O)CCC(=O)NC1CCCCCCCCCCC1 (stereo unspecified)	-18%	-2%
Cc1ccc(-c2nc(S(=O)(=O)c3ccc(F)cc3)c(N(C)C)o2)cc1	11%	9%
Cn1c(O)c(C2=Nc3ccccc3SC(c3cccc(O)c3)C2)c(=O)[nH]c1=O (stereo unspecified)	-6%	29%
CCN(CC)C(=O)COc1cc2oc(=O)cc(C)c2cc1Cl	13%	6%
CC1=Nc2cc(C(=O)NC3CCCC3)ccc2Sc2ccc(Cl)cc21	24%	-19%
COc1cc(/C=C/C(=O)Oc2ccc(-c3ccc(C)cc3)cc2)ccc1OCC#N	2%	20%
Cc1csc(=NC(C)C)n1/N=C/C(C)c1ccccc1 (stereo unspecified)	20%	0%
COC(=O)c1cccc(COC(=O)c2cc(C(C)=O)c[nH]2)c1	-11%[1.06 µM]	22%
CC1CCN(S(=O)(=O)c2ccc3c(c2)N(CC(=O)NC(C)C)C(=O)CO3)CC1	9%	-3%
COc1ccccc1C1=NOC(C(=O)NC(C)C)C1 (stereo unspecified)	-1%	0%
CN(CCc1noc(COc2cccc(C(F)(F)F)c2)n1)C(=O)c1cccc(Cl)c1	2%	3%
CCCCc1ccc(-c2csc(-c3nc(-c4ccc(C)cc4)c(C)s3)n2)cc1	-3%	14%
COc1ccc(N2CCN(C(=O)c3ccc(CS(=O)(=O)c4ccc(Br)cc4)o3)CC2)cc1	-3%	-2%
Cc1ccc(C)c(S(=O)(=O)Nc2ccc3sc(C)nc3c2)c1	275%[activator]	8%
CC(C)c1ccc(NC(=O)c2ccc(Cn3nc(N4CCN(c5ccccc5)CC4)ccc3=O)o2)cc1	?	?
COc1ccc(-c2nnc(SCc3nc4ccccc4o3)o2)c(OC)c1	9%	107%[activator]
CCC1CCc2c(sc(NC(=O)c3ccc(C)cc3)c2C#N)C1 (stereo unspecified)	2%	138%[activator]
COc1ccc2[nH]c(C)c(C(=O)CN3CCCC(C)C3)c2c1 (stereo unspecified)	-14%	-7%
COc1ccc(-c2ocnc2C(=O)Nc2ccc(C)cc2)cc1	-1%	21%
COc1nc2ccccc2nc1N1CCC(C(=O)Nc2cccc(F)c2)CC1	-5%	-4%
COc1cccc(CNC(=O)CN(c2ccc(C)cc2)S(=O)(=O)N(C)C)c1OC	11%&13%	1%&-1%
COC(=O)CSc1nc(N2CCCC2)c2c(c1C#N)CCCC2	18%	7%
Cc1cc(C)c2c(c1)NC(=O)C2(O)CC(=O)c1cccs1 (stereo unspecified)	-2%	4%
CCCc1cc(C(=O)Nc2ccc(F)c(Cl)c2)no1	12%	183%[activator]
CSc1ccc(/C=C/c2nc(-c3ccc(F)cc3)cs2)cc1	9%	113%[activator]
CC(NC(=O)Cn1c(=O)c2c(ncn2C2CCCC2)n(Cc2ccccc2)c1=O)c1cccs1 (stereo unspecified)	-2%	-13%
O=C(c1cccc([N+](=O)[O-])c1)N1c2nc(-c3ccco3)nn2C2(CCCCC2)[C@@H]2CCCC[C@@H]21	-20%	-25%
O=C(NCCS(=O)(=O)N1CCN(c2ccc(F)cc2)CC1)C1CC(=O)N(c2ccccc2)C1 (stereo unspecified)	-8%	-13%
CCOc1cccc(C(=O)Nc2cccc3ccc(C)nc23)c1	10%	6%
CCn1c(=O)n(CC)c2cc(N3CCCC3)c(NC(=O)Nc3cc(C)cc(C)c3)cc21	-7%	-14%
Cc1ccc2nc(-c3ccsc3)c(Nc3ccc(C(C)C)cc3)n2c1	-6%	-8%
Cc1ccc(NC(=O)CN2C(=O)c3cccnc3Sc3ccccc32)c(Br)c1	11%	40%[activator]
Cc1cc(C)n2nc(-c3ccc(Cl)cc3)nc2n1	-7%	49%[activator]
CCOc1cc(S(=O)(=O)N2CCN(CCO)CC2)ccc1Cl	-8%	-3%
CC(=O)Nc1ccc(Nc2nc3ccc(C)cc3n3nnnc23)cc1	5%	-10%

Among those listed so far, 2 contain a CF3 group:
SMILES	StopGo RLuc	StopGo FLuc
CCOC(=O)c1sc(NC(=O)c2cc3nc(-c4ccccc4)cc(C(F)(F)F)n3n2)c(C(=O)OCC)c1C	21%	-22%
CN(CCc1noc(COc2cccc(C(F)(F)F)c2)n1)C(=O)c1cccc(Cl)c1	2%	3%

(listing goes on)
SMILES	StopGo RLuc	StopGo FLuc
COc1ccccc1CNC(=O)C(=O)NCC(c1ccco1)S(=O)(=O)c1ccc(F)cc1 (stereo unspecified)	9%	-29%
NS(=O)(=O)c1cc2c(cc1Cl)NC(C(Cl)Cl)NS2(=O)=O (stereo unspecified)	0%	-11%[11.5 µM]
O=c1c2ccccc2nc(-c2ccc(Cl)cc2)n1CCCCOc1ccc(F)cc1	-10%	-11%
Cc1ccnc2nc(NC(=O)c3ccccc3Cl)nn12	-15%	108%[activator]
O=C(NCc1ccc(F)cc1)c1c(O)nc2ccccn2c1=O	30%	83%[activator]
Nc1ccc(OCC(F)F)c(Cl)c1	8%	23%
CCOc1ccc(C(=O)c2oc3ccccc3c2NC(=O)c2cc(-c3ccccc3)on2)cc1	3%	-18%
CC(C)NC(=O)CN(C)Cc1cccc2cccnc12	-7%	0%
O=C(OCc1ncc(-c2ccccc2)o1)c1cncc(Br)c1	9%	61%[activator]
O=C(C1CCN(S(=O)(=O)c2cccc3nonc23)CC1)N1CCN(c2cccc(Cl)c2)CC1	?	-30%
COc1cc(C#N)ccc1OCc1ccc(Br)cc1F	17%	168%[activator]
CN(CCNC(=O)c1nn(C)c2c1COc1ccccc1-2)C1CCCCC1	-15%	-14%
Cc1ccc(CCNC(=O)c2ccc3nc(N4CCC(C)CC4)sc3c2)cc1	15%	-19%
COC(=O)c1cccc(CN2C(=O)SC(Nc3ccccc3C)C2=O)c1 (stereo unspecified)	5%	-7%
CCOc1ccc(/C=C/c2nc(C#N)c(N3CCN(Cc4ccccc4)CC3)o2)cc1	-12%	9%
CS(=O)(=O)c1cccc(C(=O)OCc2ccc(F)cc2)c1	-1%	18%
O=C(Nc1ccc(Br)cc1)c1ccc(Br)c(S(=O)(=O)N2CCCCC2)c1	-8%	-13%
CCOc1ccccc1CNC(=O)Nc1cn(CC(C)C)c(=O)c2ccccc12	-13%	10%
COc1ccc(NC(=O)CN(C)S(=O)(=O)c2ccc3c(c2)CCCN3C(C)=O)cc1	222%[activator]	-4%
O=C(Nc1ccccc1C(=O)NCc1ccccc1)c1ccccn1	?	11%
N#C/C(=C/c1ccsc1)c1ccc2ccccc2n1	11%	164%[activator]
CCc1ccc(-c2nc3c(c(SCc4ccccc4F)n2)Cc2c(CO)cnc(C)c2O3)cc1	-1%	-14%
O=C(/C=C/c1cccc(C(F)(F)F)c1)Nc1ccc(F)c(F)c1F	?	0%
O=C(O)C1CCN(C(=O)c2cc(-c3ccccc3)nc3ccccc23)CC1	-4%	0%
CCc1ccc(-c2nc3cc(NC(=O)c4cccnc4)ccc3o2)cc1	0%	173%[activator]
Cc1ccc2[nH]c(C(=O)N(Cc3ccc(C)o3)C3CC3)cc2c1	-16%	57%[activator]
Cc1ccc(Cl)cc1N1CCN(C(=O)c2ccc(CS(=O)(=O)c3ccc(Br)cc3)o2)CC1	0%	0%
COc1ccc(NC(=O)c2nc3ccccc3nc2N2CCN(C)CC2)cc1Cl	-22%	-19%
CCSc1nn(C(C)C)c2nc3c(c(=O)n12)C(C)(CC)Cc1ccccc1-3 (stereo unspecified)	-8%	-7%
COc1ccc(N2CC(NC(=O)C3CCCCC3)CC2=O)cc1OC (stereo unspecified)	-7%	-12%

Two entries picked at random from those above:
SMILES	StopGo RLuc	StopGo FLuc
O=C(/C=C/c1cccc(C(F)(F)F)c1)Nc1ccc(F)c(F)c1F	?	0%
Cc1ccc2[nH]c(C(=O)N(Cc3ccc(C)o3)C3CC3)cc2c1	-16%	57%[activator]

(next part)
SMILES	StopGo RLuc	StopGo FLuc
CCC(C)NC(=O)c1ccc(CNC(=O)NC(C)C)cc1 (stereo unspecified)	-8%	-1%
COc1ccccc1NC(=O)C1=C(C)Nc2nc(SCC(=O)c3ccc(C)cc3)nn2C1c1ccc(F)cc1 (stereo unspecified)	-4%	-3%
Cc1nc(-c2ccc(S(=O)(=O)Nc3ccc(C#N)cc3)cc2)co1	176%[activator]	-7%&30%
Cc1ccc(NCc2cccn2-c2nnc(N3CCC(C(=O)NCc4ccc(OC(C)C)cc4)CC3)s2)cc1	?	?
CSc1ccc(/C=C(\C#N)C(N)=O)cc1	18%	13%
O=C(Cn1cnc(S(=O)(=O)N2CCCC2)c1)Nc1ccccc1	-18%	-11%

An excerpt, so the mix of outcomes need not match the whole.
